Compound activity as filed in PubChem.
BJeLR lethal – BJeLR cell viability loss; BJeLR (HRASV12) viability, CellTiter-Glo ATP luminescence, 48 h; reference of the scale not given here; inhibition, % (no concentration beside the values); hit rate 0.17% among 300,000;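 active = replicate mean above 50%; inconclusive = above 50% but judged a plate artefact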;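 note: 50 nL library stock added to about 25 µL; numbers are from one replicate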
Sa ugtP lethal – kills S. aureus RN4220 lacking UgtP; S. aureus RN4220 ugtP deletion, OD600 growth, 16 h; some inactives read as strong as hits; growth inhibition, % (test concentration not listed); hit rate 0.54% among 330,000; AID 1259309;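 active = z-score under -3 and OD600 up to 0.15 on both plates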;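 note: plate controls were untreated wells for no effect and antibiotic for full effect; wells of about 80 µL received 100 nL stock; the first replicate is given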
Autofluor counter – flagged as autofluorescent in microsphere protease counterscreen; fluorescence intensity (test concentration not listed); hit rate 3.1% among 360,000; compound autofluorescence counterscreen, microsphere flow cytometry; stronger effect = higher value;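 active = at least 3 SD above the mean of all compounds, about 16000 in these data; inconclusive = too few beads counted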;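 note: 100 nL of 1 mM stock went into each well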
Mtb hypoxia rep – inhibitors of hypoxia-regulated fluorescent reporter in Mycobacterium tuberculosis | fluorescence inhibition, % (no concentration beside the values) | AID 1159583 | hit rate 0.1% among 300,000 | M. tuberculosis hypoxia-regulated fluorescent reporter, fluorescence;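 active = 35 to 45% if threefold the growth effect, above 45% if 1.5-fold the growth effect; inactive = the rest, general growth blockers included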;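 note: wells of about 50 µL received 100 nL stock; 0% = vehicle wells and 100% = reference inhibitor wells; whole bacteria with a GFP reporter of the hypoxia response; strong numbers were not always called active; many hits fall short of the cut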
PrP 5UTR inh – inhibition of PrP 5' UTR reporter expression | cell-based PrP 5' UTR mRNA reporter, plate reader | inhibition, % (concentration not given with the values) | hit rate 0.35% among 340,000 | AID 488862;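 active = every replicate at 50% or more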;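 note: 0 = median of the neutral control wells; tested in H4 reporter cells; numbers are from one replicate; inactives centre near -14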
Sa RN4220 lethal – kills Staphylococcus aureus RN4220. S. aureus RN4220 growth, OD600, 16 h. AID 1259311. inhibition, % (concentration not given with the values). hit rate 0.33% among 330,000;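 active = z-score of -3 or lower and OD600 up to 0.18 on both plates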;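 note: plate controls were untreated cells for no effect and reference antibiotic for full effect; stock transfer was 100 nL into about 80 µL; one replicate is shown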
Mtb hypoxia rep growth – recorded beside Mtb hypoxia rep, whose call it bears; growth inhibition, %; measured here: M. tuberculosis growth (absorbance);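 0% = vehicle and 100% = reference antibiotic; read after six days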
The depositor's hits bear a star; ? = inconclusive; · = no result given.

SMILES	BJeLR lethal	Sa ugtP lethal	Autofluor counter	Mtb hypoxia rep	Mtb hypoxia rep growth	PrP 5UTR inh	Sa RN4220 lethal
CCOc1ccc(S(=O)(=O)Nc2cccc(C(=O)NCC(C)(C)N3CCOCC3)c2)cc1	12	7	4597	5	-1	-23	4.9
CCCOC(=O)C1NC(=O)N2C1SC(C)(C)C2C(=O)OCCC (stereo not drawn)	·	-3	·	19	10	·	7.2
Cc1cc(-n2c(C)cc(C(=O)COc3ccccc3[N+](=O)[O-])c2C)no1	6	2	4426	5	5	-30	15
CC1(c2cccc(Br)c2)NC(=O)N(CC(=O)Nc2cccnc2Cl)C1=O (stereo not drawn)	-6	0	5268	6	6	-14	-6.8
CCCC[C@@H]1CNC(=S)N1CCCC	-13	·	4188	·	·	-11	·
CC1Oc2ccccc2OC1C(=O)Nc1nccs1 (stereo not drawn)	-4	1	5946	5	4	-5	5.7
COc1ccc2[nH]c3c(NCCCOC(C)C)ncnc3c2c1	11	0	3935	-4	7	-48	0.0
Cc1[nH]c(=O)[nH]c(=O)c1C=NNC(=O)CCCCCNC(=O)OC(C)(C)C	·	3	·	8	12	·	1.4
O=C(COc1ccc(S(=O)(=O)N2CCOCC2)cc1)Nc1cccc([N+](=O)[O-])c1	0	11	6176	4	-5	-10	-6.5
O=c1[nH]c(CN2CCN(S(=O)(=O)/C=C/c3ccccc3)CC2)nc2cc(Cl)ccc12	-1	3	3949	-1	4	-37	0.5

4 compounds out of the list, sorted by heavy-atom count, high to low.
SMILES	BJeLR lethal	Sa ugtP lethal	Autofluor counter	Mtb hypoxia rep	Mtb hypoxia rep growth	PrP 5UTR inh	Sa RN4220 lethal
O=C(COc1ccc(S(=O)(=O)N2CCOCC2)cc1)Nc1cccc([N+](=O)[O-])c1	0	11	6176	4	-5	-10	-6.5
Cc1cc(-n2c(C)cc(C(=O)COc3ccccc3[N+](=O)[O-])c2C)no1	6	2	4426	5	5	-30	15
COc1ccc2[nH]c3c(NCCCOC(C)C)ncnc3c2c1	11	0	3935	-4	7	-48	0.0
CC1Oc2ccccc2OC1C(=O)Nc1nccs1 (stereo not drawn)	-4	1	5946	5	4	-5	5.7

Next section:
SMILES	BJeLR lethal	Sa ugtP lethal	Autofluor counter	Mtb hypoxia rep	Mtb hypoxia rep growth	PrP 5UTR inh	Sa RN4220 lethal
CON(C)S(=O)(=O)NC(=O)C1=C(N2CCCC2)COC1=O	·	1	3911	11	1	-11	-16
CN(C)S(=O)(=O)c1ccc2nc(NC(=O)c3cccnc3)sc2c1	3	-8	3854	3	12	-39	4.7
CCOC(=O)C1CCCN1C(=O)c1ccc(OC)c(Br)c1 (stereo not drawn)	-7	4	5316	5	3	-17	2.2
O=C(Nc1nccs1)c1ccc(CSc2ccccc2)o1	-13	4	4735	4	-2	-69	8.7
COc1ccc(C(=O)N[C@H](C(=O)N2CCN(c3ccccc3F)CC2)C(C)C)cc1	-5	5	3591	-10	4	-31	9.1
CC(C)c1ccc2oc(-c3cc(N)ccc3O)nc2c1	-7	10	?	-17	-1	63*	-0.4
CC(=O)N/N=c1\sc2ccccc2n1C	-7	·	4490	·	·	-26	·
C=CCn1c(CCC(=O)O)ccc1-c1ccccc1	0	4	7995	0	-8	-13	3.2
O=C(CN1C(=O)c2cccc3cccc1c23)NCc1ccncc1	-1	-1	3982	12	14	-32	1.4
CC(=O)Nc1cccc(NC(=O)CSc2ccc(-c3ccccn3)nn2)c1	-19	7	3196	15	-1	-21	-5.2
CCn1c(=O)cc(OCC(=O)N2CCN(C(=O)c3ccco3)CC2)c2ccccc21	1	5	·	2	10	-21	2.2
CN(C)CCCNC(=O)/C(=C/c1ccc(-c2ccc([N+](=O)[O-])cc2)o1)NC(=O)c1ccccc1	5	-1	·	16	9	-14	-2.1
COc1ccc(/C(N)=N/OC(=O)c2cccs2)cc1OC	3	6	3952	13	12	-95	6.3
Nn1c(=O)[nH]c2c([nH]c3ccccc32)c1=O	-1	-3	5155	7	4	7	8.4
O=S(=O)(/N=C(/Nc1ccc(F)c(F)c1F)c1ccccc1)c1ccccc1	20	1	7353	2	4	-14	4.1
COCCn1c(C)cc(C2=NNC(=Nc3ccccc3)SC2)c1C	5	-8	3278	·	·	-59	3.3
O=C(NNc1c(Cl)cccc1Cl)C1CCC1	-1	12	6190	14	-14	-9	4.3
O=C(NNC(=S)Nc1cccc(Cl)c1)c1ccccc1OC(F)F	-4	6	1948	14	8	-28	14
Cn1cc(CN2CCCC(CO)(Cc3ccccc3)C2)cn1 (stereo not drawn)	8	-1	4417	-2	-2	-20	-2.0
O=C(CSc1nnc2ccccn12)Nc1ccccc1C(=O)NC1CC1	7	1	9252	5	12	-11	3.7
Cc1ccc(CN2C(Cc3ccccc3)C(=O)CS2(=O)=O)cc1 (stereo not drawn)	·	4	·	6	2	·	12
CCc1nnc(NC(=O)C(CC)CC)s1	-8	2	4858	-3	-12	1	4.2
CC1(C)Cc2ccccc2C(NN=Cc2ccc([N+](=O)[O-])cc2)=N1	·	13	·	15	7	·	6.0
CCN1CCN(CCCNC(=O)C(=O)c2c(C)[nH]c3ccccc23)CC1	0	-7	3370	8	12	-16	0.7
O=C(Nc1ccc(O)cc1)/C(=C\C=C\c1ccccc1)NC(=O)c1ccccc1	1	16	3566	-2	12	·	5.2
CCOc1ccc(NC(=O)c2ccc3c(=O)n(-c4ccc(OC)cc4OC)c(=S)[nH]c3c2)cc1	-6	·	6012	·	·	-22	·
O=C(CN1CCOCC1)Nc1ncc(Cc2cccc3ccccc23)s1	1	-3	9984	2	1	-17	1.9
CCOC(=O)c1c(-c2ccccc2)nc2ccc(C)cn12	3	-2	19967*	·	·	-60	8.8
Cc1ncc(CN2CCC(CO)(Cc3ccccc3)CC2)s1	0	14	5108	-1	10	-22	3.8
O=C(/C=C(\O)c1ccc(Cl)cc1)C(=O)NNC(=O)C(O)(c1ccccc1)c1ccccc1	·	92*	4328	·	·	-18	-6.1

Record cards, as listed above.
Cc1ccc(CN2C(Cc3ccccc3)C(=O)CS2(=O)=O)cc1 (stereo not drawn) as listed: BJeLR lethal: ·; Sa ugtP lethal: 4; Autofluor counter: ·; Mtb hypoxia rep: 6; Mtb hypoxia rep growth: 2; PrP 5UTR inh: ·; Sa RN4220 lethal: 12
CN(C)CCCNC(=O)/C(=C/c1ccc(-c2ccc([N+](=O)[O-])cc2)o1)NC(=O)c1ccccc1 as listed: BJeLR lethal: 5; Sa ugtP lethal: -1; Autofluor counter: ·; Mtb hypoxia rep: 16; Mtb hypoxia rep growth: 9; PrP 5UTR inh: -14; Sa RN4220 lethal: -2.1
Cn1cc(CN2CCCC(CO)(Cc3ccccc3)C2)cn1 (stereo not drawn) as listed: BJeLR lethal: 8; Sa ugtP lethal: -1; Autofluor counter: 4417; Mtb hypoxia rep: -2; Mtb hypoxia rep growth: -2; PrP 5UTR inh: -20; Sa RN4220 lethal: -2.0

(cont.)
SMILES	BJeLR lethal	Sa ugtP lethal	Autofluor counter	Mtb hypoxia rep	Mtb hypoxia rep growth	PrP 5UTR inh	Sa RN4220 lethal
COc1ccc(/C=C(\C#N)C(=O)NCC2CCCO2)cc1OC (stereo not drawn)	-6	4	9029	0	7	-8	0.3
Cc1ccnc(SCc2nc3ccccc3s2)n1	6	13	11748	5	9	-69	8.6
O=C(O)c1cc(-c2ccccc2)on1	3	9	8728	-1	-2	-20	6.8
O=C(NCc1nc2ccccc2[nH]1)c1ccccc1F	-8	2	3828	2	0	·	2.2
O=C(CNC(=O)c1ccc(S(=O)(=O)N2CCCC2)cc1)N/N=C/c1ccc(F)cc1	-4	·	2532	·	·	-15	·
O=C1CCC(C(=O)N2CCc3c(Cl)cccc3C2)CN1CCCN1CCOCC1 (stereo not drawn)	3	0	5697	8	5	-18	2.4
COc1ccc(C(=O)NN(C)c2nc(-c3ccccc3)nnc2C(F)(F)F)cc1	-3	8	4252	·	·	-6	0.3
Cc1nn(C)c(C(=O)Nc2ccc3c(c2)OCO3)c1[N+](=O)[O-]	2	-5	5675	2	-5	-22	0.0
COc1ccc(CCNC(=O)CNS(=O)(=O)c2ccc(Cl)cc2)cc1	1	8	3740	16	3	·	6.1
COc1ccccc1N(CC(=O)NCCSCc1cccc(Cl)c1)S(C)(=O)=O	-4	0	3716	-10	11	-2	1.7
CCn1nnc(NC(=O)COc2cc(C)ccc2C(C)C)n1	18	4	20175*	11	8	-7	6.6
C/C(=N/OC(=O)c1c(-c2c(F)cccc2Cl)noc1C)c1cnccn1	12	·	3974	·	·	-107	·
CN(c1ccccc1C(=O)N1CCN(Cc2ccc3c(c2)OCO3)CC1)S(C)(=O)=O	-2	9	4590	11	7	-18	2.9
C=CCSc1ncc(CO)n1Cc1ccccc1	-16	2	4207	-2	-4	-20	6.6
COc1cccc(NC(=O)COC(=O)c2ccc3c(c2)OCO3)c1	·	2	5222	0	4	-11	1.1
CCN(CC)C(=O)[C@H]1C[C@H](CC(=O)NCCN2CCOCC2)C(=O)N2CCc3c([nH]c4ccc(Cl)cc34)[C@]12C	·	1	3656	-9	7	-3	2.2
Cc1nn(CC(=O)Nc2ccc(C(C)C)cc2)c(C)c1[N+](=O)[O-]	-7	5	3998	3	14	-13	-5.8
Cc1cc(C(=O)N/N=C/c2ccc(OCc3ccccc3)cc2)c(C)o1	-2	·	4781	·	·	-35	·
O=C1/C(=C\c2ccccc2)CCc2c1[nH]c1ccccc21	-2	-16	23509*	3	7	-192	3.6
CC(C)Oc1ccc(C(=O)NC2=NCCS2)cc1	-9	6	4413	11	12	-45	6.0
CCOc1cc(N2CCOCC2)c(OCC)cc1NC(=O)COC(=O)c1ccc(Cl)cc1N	·	2	2961	24	8	-22	22
Fc1ccc(-n2c(-c3ccc4ccccc4n3)n[nH]c2=S)cc1Cl	-25	10	4123	14	3	-11	-0.2
Cc1ccc(C(=O)NC(=S)Nc2cccc3c(C)cc(C)nc23)cc1	3	31	15607	-3	17	-20	13
COCC1CCCCN1C(=O)c1ccc(OC2CCN(CCc3ccccc3)CC2)cc1 (stereo not drawn)	7	10	4678	5	1	-25	1.5
CCc1[nH]nc2c1C(c1ccsc1)C(C#N)=C(N)O2 (stereo not drawn)	1	-1	·	6	6	-15	-7.5
CS(=O)(=O)c1ccccc1-c1nnc(NC(=O)Cc2ccccc2)o1	-1	-1	4833	-7	-3	1	-1.8
Cc1ccccc1N1CC(O)(c2ccccc2)[N+]2=C1SCC2 (stereo not drawn)	2	3	2054	-5	2	-9	1.9
COc1ccc(NC(=O)CCNC(=O)c2ccccc2)cc1S(N)(=O)=O	-2	-4	3882	16	0	-9	-0.3
